Bioassay records: PubChem BioAssay, several laboratories
FGF22 binding: shifts melting point of recombinant human FGF22; Q9HCT0; recombinant FGF22 thermal shift, SYPRO orange fluorescence; percent of sucrose octasulfate shift, DMSO zero; calls only at 9.99 µM; 340,000 tested, 1.5% active; AID 651658;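 active = melting point raised past a set limit in the mean and every replicate; inconclusive = no clear call; three in four hits are not shown here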
Target sequence (Q9HCT0 whole entry, looked up): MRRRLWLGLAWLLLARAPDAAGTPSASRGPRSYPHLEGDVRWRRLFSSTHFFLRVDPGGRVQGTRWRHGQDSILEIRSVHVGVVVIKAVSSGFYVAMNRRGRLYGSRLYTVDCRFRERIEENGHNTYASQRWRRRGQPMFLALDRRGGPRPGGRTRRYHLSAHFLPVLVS
RanGTP-Imp inh: inhibitors of RanGTP-importin-beta interaction, primary screen, biochemical, FRET, CFP-Ran, YFP-importin-beta, homogeneous; AID 2216; 300,000 tested, 1.1% active; inhibition, % (concentration not given with the values); cell-free CFP-Ran/YFP-importin-beta FRET ratio;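 active = most replicates above 15%; inconclusive = exactly half above 15%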;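 also: 0% = DMSO wells and 100% = Ran loaded with GDP instead of GTP; wells of about 40 µL received 100 nL stock; the first replicate is given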
UCH37 DUB inh: blocks the human deubiquitinase UCH37; purified proteasome/UCH37, Ub-AMC cleavage fluorescence; inhibition, % (concentration not given with the values); 330,000 tested, 0.33% active; AID 588478;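 active = mean of two replicates above 20%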;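 also: 0% = compound-free wells with enzyme and 100% = wells lacking proteasome; stock transfer was 100 nL into about 20 µL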
Target sequence (Q9Y5K5 whole entry, looked up): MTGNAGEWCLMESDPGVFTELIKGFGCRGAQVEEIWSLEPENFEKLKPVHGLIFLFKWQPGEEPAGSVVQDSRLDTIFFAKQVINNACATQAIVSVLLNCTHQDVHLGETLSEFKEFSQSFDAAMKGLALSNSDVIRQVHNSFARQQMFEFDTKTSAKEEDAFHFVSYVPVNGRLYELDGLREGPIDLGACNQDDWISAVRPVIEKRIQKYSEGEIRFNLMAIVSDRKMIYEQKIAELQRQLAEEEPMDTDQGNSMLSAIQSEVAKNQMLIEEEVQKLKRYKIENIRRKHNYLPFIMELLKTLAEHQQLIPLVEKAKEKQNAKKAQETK
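Material: human UCH37 enzyme supplied as purified proteasome complex / Amount: 0.15 nM proteasome as dispensed / Buffer or medium: pH 7.4 Tris-HCl (50 mM) with ovalbumin, ATP-MgCl2, DTT / Times: preincubation 30 min, reaction 25 min, room temperature / Technique: AMC fluorescence from Ub-AMC cleavage, excitation 355 nm, emission 460 nm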
MLL AF4-AF9 inh: MLL-AF4/AF9 protein interaction inhibition. AID 651704. 350,000 tested, 0.47% active. P42568. inhibition, % at 10 µM. AlphaScreen, biotin-AF4 peptide binding to FLAG-AF9;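 active = every replicate reaching a set inhibition limit, whatever the replicate mean, cut at about 25% in these data; inconclusive = mean inhibition reaches that limit but some replicates miss it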;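 also: 0% = plate neutral control median and 100% = total signal loss; the record names both 10 and 1 µM as test concentration; the first replicate is given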
Vif TR-FRET: HIV-1 Vif–A3G interaction blockers – biochemical, TR-FRET, GST-Vif 1-94, biotin-A3G peptide, dose response retest, primary screen (AID 1117319) | TR-FRET GST-Vif / biotin-A3G peptide binding; higher % means a stronger effect; test concentration not given here; strong numbers were not always called active | inhibition, %; hits with a dose series show IC50 in µM | 260,000 tested, 0.57% active;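 active = above the screen mean plus three standard deviations and confirmed in dose response; inconclusive = results disagree or hit not tested in dose response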;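 also: Vif residues 1-94 fused to GST binding biotinylated APOBEC3G peptide 110-148; 0% = full assay without inhibitor and 100% = GST in place of GST-Vif; retest series ran down from 100 µM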
HNF4A DNA FP: change in binding of human HNF4 alpha to DNA; P41235; HNF4a-FITC DNA binding, fluorescence polarization, 1 h; activity change, % at 10 µM; 360,000 tested, 0.3% active; AID 1224865; in the data active = activity change above about 30%, passing the limit was not always enough;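 also: controls were the assay level and a saturating level of protein; the project sought stronger binding though the title names inhibitors; some compounds called inactive have numbers as strong as hits; positive values seem to mean higher polarization but the record does not say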
Target sequence (P41235 whole entry, looked up): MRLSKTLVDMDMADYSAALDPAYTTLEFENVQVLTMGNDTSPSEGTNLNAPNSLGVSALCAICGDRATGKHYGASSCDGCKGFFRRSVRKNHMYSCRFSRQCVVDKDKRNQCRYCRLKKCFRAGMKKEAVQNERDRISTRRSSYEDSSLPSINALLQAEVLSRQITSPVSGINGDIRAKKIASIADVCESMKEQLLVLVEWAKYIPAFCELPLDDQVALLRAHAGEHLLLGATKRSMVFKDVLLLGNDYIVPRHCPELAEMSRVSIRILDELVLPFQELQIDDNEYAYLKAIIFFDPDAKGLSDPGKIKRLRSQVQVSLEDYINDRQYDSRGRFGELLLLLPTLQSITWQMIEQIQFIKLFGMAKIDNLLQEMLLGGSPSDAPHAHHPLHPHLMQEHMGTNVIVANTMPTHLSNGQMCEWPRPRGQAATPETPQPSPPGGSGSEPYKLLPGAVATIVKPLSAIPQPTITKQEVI
E coli growth: E. coli growth inhibition; AID 1053175; 330,000 tested, 0.21% active; OD600 absorbance (no concentration beside the values); Escherichia coli growth, OD600, 23 h; active compounds read low;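 active = OD600 absorbance below the run mean of sample wells minus 3.6 SD, in any replicate, cut at about 0.56 in these data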;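 also: stock transfer was 300 nL into about 60 µL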
Active calls of the source: *; i = inactive; ? = inconclusive; nt = not tested or not shown; & = joins results of further samples. These rows are one share of the data; count on the stated rates, not on these rows.

SMILES	FGF22 binding	RanGTP-Imp inh	UCH37 DUB inh	MLL AF4-AF9 inh	Vif TR-FRET	HNF4A DNA FP	E coli growth
Cc1ccc(Cn2c(=S)[nH]c3ccccc3c2=O)cc1	i	6.4	2.1	-1.9	-3%	-2.1	0.7
Cc1ccc(/C([O-])=C(/C(=S)NCc2ccco2)[n+]2ccccc2)cc1[N+](=O)[O-]	i	-0.4	7.3	0.6	?	-6.1	0.69
COc1ccc(CCNC(=O)C2CC(=O)N(CCc3ccccc3)C2)cc1OC (centres undefined)	i	-1.5	1.5	-4.0	-1%	-1.5	0.73
COc1ccc(CCNC(=O)CN(c2ccccc2OC)S(C)(=O)=O)cc1OC	i	5.2	6.0	-1.3	1%	0.3	0.71
Cc1c2n(c3ccccc13)CCN(C)C2	i	1.8	-10	-0.3	nt	-3.5	0.74
CC(C)C[C@H](N)c1nnc(SCc2ccc(Cl)cc2)o1	i	-0.1	5.0	0.0	20%	0.0	0.59
Cc1cc(NC(=O)Cc2ccsc2)ccc1Br	i	3.9	2.4	0.4	-8%	5.7	0.67
CC1CCN(S(=O)(=O)N2CCC(C(=O)NCc3cccnc3)CC2)CC1	i	6.4	0.0	4.6	?	-1.9	0.69
O=C(CSc1nnnn1-c1ccccc1)c1ccco1	i	?	3.8	0.1	-12%	-2.2	0.69
OCC#Cc1cnc2ccccc2c1	nt	-1.6	2.2	nt	-1%	-0.9	0.72
COc1cc(-c2nnc(CSc3nnc4nc(C)cc(C)n34)o2)cc(OC)c1OC	nt	6.4	-3.2	nt	11%	1.7	0.66
Cc1ccc(S(=O)(=O)NCC(=O)OC(C)C(=O)NC2CCCCC2C)cc1C (centres undefined)	i	nt	5.2	-7.6	-10%	-3.6	0.69

The last 3 compounds of the part above are carried over, then new ones follow:
SMILES	FGF22 binding	RanGTP-Imp inh	UCH37 DUB inh	MLL AF4-AF9 inh	Vif TR-FRET	HNF4A DNA FP	E coli growth
OCC#Cc1cnc2ccccc2c1	nt	-1.6	2.2	nt	-1%	-0.9	0.72
COc1cc(-c2nnc(CSc3nnc4nc(C)cc(C)n34)o2)cc(OC)c1OC	nt	6.4	-3.2	nt	11%	1.7	0.66
Cc1ccc(S(=O)(=O)NCC(=O)OC(C)C(=O)NC2CCCCC2C)cc1C (centres undefined)	i	nt	5.2	-7.6	-10%	-3.6	0.69
Cc1ccccc1Cn1nc(C)c(NC(=O)/C=C/c2cnn(C)c2C)c1C	i	-1.8	-0.1	-27	3%	-0.4	0.72
COc1cccc(N(C(=O)c2csnn2)C(C(=O)NC2CCCC2)c2ccccc2)c1 (centres undefined)	i	-4.7	2.6	-1.2	4%	-0.1	0.7
Nc1nc(CN2CCCCC2)cs1	nt	-5.0	2.8	nt	4%	0.7	0.69
O=C(O)C1C2CCC(C2)C1C(=O)NCCC1=CCCCC1 (centres undefined)	nt	0.8	3.6	nt	4%	-3.6	0.7
CN(Cc1cccnc1)Cc1cn(C)nc1-c1ccc(Oc2ccccc2)cc1	nt	2.4	0.6	4.7	6%	-3.6	0.68
COc1ccc(-c2nnc(NC(=O)CS(=O)(=O)c3ccc(F)cc3)o2)cc1	i	?	5.7	-2.6	-3%	4.6	0.71
O=C1C=CC(=C(c2ccc(O)cc2)c2ccc(O)cc2)C=C1	i	nt	3.3	12	nt	-2.1	0.7
Cc1nnc(NC(=O)c2ccc(S(=O)(=O)N3CCc4ccccc4C3)cc2)o1	i	9.1	2.5	-7.4	-15%	1.4	0.73
COc1cccc(C2c3[nH]c4ccccc4c3C[C@H]3C(=O)N(CCCCCO)CC(=O)N23)c1 (some centres undefined)	i	-4.0	5.4	2.3	3%	2.2	0.66
O=C(Cn1c(=O)oc2ccccc21)c1ccccc1	nt	-1.2	0.9	nt	21%	-2.3	0.68
CC(Sc1nnnn1C)C(=O)Nc1ccccc1-c1ccccc1 (centres undefined)	i	-5.9	1.3	4.0	71%	-1.5	0.65
COC(=O)C(COC(=O)c1c(F)cccc1F)NC(=O)c1c(F)cccc1F (centres undefined)	i	4.8	1.2	-0.8	-7%	-0.1	0.67

Quoted from the listing.
For HNF4A DNA FP, Cc1ccc(/C([O-])=C(/C(=S)NCc2ccco2)[n+]2ccccc2)cc1[N+](=O)[O-] shows -6.1
For HNF4A DNA FP, Cc1c2n(c3ccccc13)CCN(C)C2 shows -3.5

Next part:
SMILES	FGF22 binding	RanGTP-Imp inh	UCH37 DUB inh	MLL AF4-AF9 inh	Vif TR-FRET	HNF4A DNA FP	E coli growth
CC(C)Cn1cc(C(=O)NCCCN2CCCC2=O)c2c3ccccc3n(C)c2c1=O	nt	2.6	-136	nt	1%	0.9	0.67
NC(CSC(c1ccccc1)(c1ccccc1)c1ccc(-c2ccccc2)cc1)C(=O)O (centres undefined)	i	nt	nt	-1.5	7%	-4.6	nt
O=C(c1n[nH]c(=O)c2ccccc12)N1CCN(C2c3ccccc3-c3ccccc32)CC1	nt	-3.1	0.8	nt	12%	3.4	0.72
COc1cc(NC(=O)c2cnn3c(C)cc(C)nc23)c(OC)cc1Cl	nt	0.0	4.4	nt	0%	0.0	0.74
CCC(c1nc2ccccc2[nH]1)N(C(=O)C1=NNC(=O)CC1)c1ccccc1 (centres undefined)	i	nt	nt	-3.1	nt	-3.9	nt
Cc1cc(-c2c(C(=O)N3CCOCC3)c(C)nn2-c2ccccc2)no1	i	-0.7	2.7	-0.4	3%	-5.7	0.68
Cc1ccccc1-c1nnn(CC(=O)c2ccc(S(=O)(=O)N3CCCC3)cc2)n1	nt	-2.9	1.4	nt	-7%	0.1	0.75
COc1cc(NC(=O)CN2CCN(Cc3ccc4c(c3)OCO4)CC2)cc(OC)c1	nt	-4.5	0.1	nt	-1%	1.8	0.68
C[C@H](CO)N1C[C@H](C)[C@@H](CN(C)CC2CCOCC2)Oc2ncc(Br)cc2C1=O	i	nt	nt	-3.0&-2.7	-2%	-0.1	nt
O=C(COC(=O)c1cc([N+](=O)[O-])ccc1N1CCOCC1)Nc1ncc(Cl)cc1Cl	i	-0.1	7.8	6.4	17%	-7.1	0.72
COc1cc(C(C(=O)NC2CCCC2)N(Cc2ccccc2)C(=O)c2snc(C(N)=O)c2N)ccc1O (centres undefined)	i	3.5	-24	3.1	nt	0.8	0.69
O=C(COC(=O)C1=COCCO1)Nc1cc(Cl)c(Cl)cc1Cl	i	nt	3.3	0.9	nt	3.9	0.68
O=C(/C=C/c1ccco1)Nc1ccc(S(=O)(=O)N2CCOCC2)cc1	i	-3.2	5.4	-3.1	?	0.9	0.7
Cc1ccc2cc(CCNC(=O)C(C)C)c(=O)[nH]c2c1C	i	?	1.5	-2.2	-3%	-0.1	0.78
CCC(C(=O)N1CCCC1)n1nc(C)c2c(C)n(-c3ccccc3)nc2c1=O (centres undefined)	i	-2.5	6.1	-1.7	nt	-1.0	0.69
CN(C)CCCNC(=O)c1cc(C(=O)c2ccccc2F)c[nH]1	i	-4.9	5.9	-1.1	1%	0.5	0.65
O=C(c1c(O)c2ccccc2oc1=O)C1CCCCC1	nt	-0.7	2.1	nt	-2%	-0.5	0.68
CCCc1cc(=O)[nH]c(SCc2cc(Cl)ccc2OC(F)F)n1	nt	4.2	7.5	nt	-5%	7.9	0.73
Cc1ccc(S(=O)(=O)/N=C(/Nc2ccc(O)c(C(=O)O)c2)c2ccccc2)cc1	i	nt	4.3	-3.2	4%	-5.1	0.7
Cc1cc(NC(=O)c2sccc2C)n(-c2cccc(Cl)c2)n1	nt	-1.9	3.7	nt	5%	-5.5	0.7
COc1ccccc1NC(=O)COC(=O)c1ccc2ccccc2n1	i	nt	1.5	-4.4	nt	1.8	0.64
Cc1ccc(C(=O)COC(=O)c2nc3nccc(C)n3n2)c(C)c1	i	nt	4.0	-0.1	-8%	14	0.65
COc1ccc(NC2c3ccccc3C(=O)N2c2cccnc2)cc1Cl (centres undefined)	i	1.5	3.2	1.8	?	11	0.74
CCOC(=O)c1cc(-c2ccccc2)sc1NC(=O)c1ccc(OC)cc1	nt	?	-12	nt	1%	nt	nt
COc1ccc([C@H]2C[C@@H](n3cc(COC(=O)c4ccccc4)nn3)[C@H](O)CN2CC2CCCCC2)cc1	i	nt	nt	0.7	nt	6.2	nt
Cc1cc(C)c2sc(N(CCCN(C)C)C(=O)c3ccc(S(=O)(=O)N4CCCc5ccccc54)cc3)nc2c1	i	7.8	nt	56*	nt	-1.7	nt
COc1ccc(N2CCN(C(CNC(C)=O)c3ccco3)CC2)cc1 (centres undefined)	i	-1.4	-2.5	-2.1	2%	-1.6	0.71
CCc1ccc(C(=O)c2cc3ccc(O)cc3oc2=O)cc1	i	45*	2.8	1.3	-4%	0.2	0.65
Cc1cc(C)n(-c2nc(N(C)C)nc(N3CCOCC3)n2)n1	nt	4.4	-0.4	nt	-3%	-3.0	0.7
Cc1ccc(S(=O)(=O)N2CCCCC2)cc1NC(=O)C1COc2ccccc2O1 (centres undefined)	i	nt	nt	-1.3	nt	2.3	nt
COCCN(C(=O)CSc1nnc(-c2ccncc2)n1C)c1c(N)n(CC(C)C)c(=O)[nH]c1=O	i	nt	nt	0.0	nt	2.2	nt
CCOc1ccc(C2c3c(oc4ccccc4c3=O)C(=O)N2c2ccc(C)cn2)cc1OC (centres undefined)	i	-3.8	1.7	-0.5	-9%	4.2	0.74
O=C(CCl)N(O)c1ccc(C=Cc2ccccc2)cc1	i	nt	nt	3.7	-5%	-5.8	nt
CN(CC(=O)NCc1cccnc1)S(=O)(=O)c1cc(Cl)ccc1Cl	i	4.7	2.3	-0.2	4%	-0.4	0.68
CCOC(=O)CSc1nnc2c3ccccc3n(C)c2n1	i	-0.8	7.2	-1.0	2%	-2.9	0.65
O=C(NCc1cccc(Cl)c1)c1ccc(N2CC3CC(C2)c2cccc(=O)n2C3)c(NC(=O)c2cccnc2)c1 (centres undefined)	i	3.9	2.9	0.5	4%	-1.2	0.72
O=C(CCc1nc2ccccc2c(=O)[nH]1)OCC(=O)c1cccc(Cl)c1	i	0.1	-1.7	-2.0	-12%	0.6	0.7
O=C(c1cccc(C(=O)N2CCN(c3ccccc3F)CC2)n1)N1CCN(c2ccccc2F)CC1	nt	3.4	4.1	nt	4%	-1.3	0.69
C=CCN(CC=C)C(=S)NC(=O)c1ccc(-c2ccccc2)cc1	nt	-0.1	0.8	nt	?	-2.2	0.65
CCOc1ccccc1/C=C(\C#N)C(=O)Nc1cccc(C(=O)O)c1	i	2.3	6.2	-1.6	-2%	0.8	0.72
O=C(Nc1ccc(NC(=O)c2cc3ccccc3o2)cc1)c1ccc2c(c1)OCCO2	i	2.9	-24	-4.9	-7%	-2.3	0.71
COc1cc2c(cc1O)C(Cc1ccc(O)cc1)NCC2 (centres undefined)	i	-17	5.0	-8.1	-2%	-3.4	0.71
COc1ccc(NC(=O)CSc2nnc(-c3ccccn3)n2Cc2ccco2)cc1OC	nt	-2.8	0.1	nt	-1%	4.0	0.7
CN(C(=O)C(Cl)Cl)C1CC2C=CC1C2 (centres undefined)	i	2.8	7.6	1.6	?	1.4	0.69
CCC(C)[C@H]1CNC(=O)C(=O)N1CCc1cccc(F)c1 (some centres undefined)	i	nt	nt	0.5	nt	0.3	nt
Cc1ccc(-n2c(Cc3cccn3C)nnc2SCC(=O)Nc2nnc(C)s2)cc1	nt	-2.3	2.9	nt	>100µM*	0.8	0.71
COc1ccc([N+](=O)[O-])cc1NC(=S)NC(NC(=O)C(c1ccccc1)c1ccccc1)C(Cl)(Cl)Cl (centres undefined)	nt	0.5	-0.4	nt	-4%	-1.4	0.73
CCCCCCCCN1C(=O)[C@H](CC(=O)N2CCN(C(=O)C3CC3)CC2)C[C@@]2(C(=O)OC)CC(C)(C)CC=C12	i	nt	nt	-1.5	nt	1.8	nt
